Sfp PPTase inh = Sfp phosphopantetheinyl transferase inhibition; Q9F4F7; Biochemical Sfp PPTase activity, qHTS; Potency, µM, without a hit: max response, negative = inhibition, most hits filed as inhibitors; hit rate 3.5% among 310,000; AID 1490; active = well fitted inhibition curve with a large enough effect; inconclusive = small, poorly fitted or top-dose-only effect, or another doubt; inactive = no such curve, though single readings can be large or run the other way;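 note: the enzyme is Sfp with the accession as filed and its product quenches rhodamine fluorescence; potency is the fitted concentration of half-maximal effect; 0% = enzyme reaction without inhibitor and -100% = no enzyme wells; top concentration of the series not given in the record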
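After 15 min at room temperature with compound, 15 nM Sfp received 5 uM rhodamine-CoA plus 12.5 uM BHQ-2-ybbR (50 mM Hepes pH 7.6, 10 mM MgCl2). Rate came from the fluorescence difference over 30 min, ex 525/em 598 nm.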
Menin MLL FP FL = inhibitors of human menin-MLL interaction, wild-type MLL peptide. Fluorescence polarization, fluorescein-MLL peptide displacement from menin. FP activity change, % at 61.4 µM. 290,000 tested, under 10 active; inconclusive = falling polarisation curve, or a change in total fluorescence; inactive = total fluorescence flat and polarisation flat or rising; no compound was filed as active; the % refers to the polarisation; negative = inhibition;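 note: % of control where 0% means no effect; inhibitors lower the polarisation; unlabelled MLL peptide was the positive control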
gsp ag = agonists of gsp mutant (McCune-Albright syndrome); hit rate 0.13% among 340,000; gsp mutant cells, cAMP HTRF, 30 min; control for the full effect not named in the record; AID 624287; Potency, µM (series often up to 76.9 µM), inactives show at the highest dose activation (cAMP increase), actives largely listed as activators; active = well fitted activation curve with a large enough effect; inconclusive = small, poorly fitted or top-dose-only effect, or another doubt; inactive = no such curve, though single readings can be large or run the other way; cell line not stated here;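 note: phosphodiesterase inhibitor Ro 20-1724 added with compounds to block cAMP breakdown; potency is the fitted concentration of half-maximal effect; nearly all actives have a fitted effect of over 60% in size; about a fifth of the inactives were tested at one dose only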
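Cells stably selected in G418 were plated at 2000/well, grown 16-24 hr, then given compounds in DMSO with the PDE inhibitor […] (300 uM solution added) for 30 min at 37C; cAMP was read by HTRF.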
TRPV1 potentiator = human TRPV1 potentiation | Q8NER1 | TRPV1-expressing cells, Fluo-8 calcium influx, capsaicin EC20 potentiation; host cell line not named in the record; control for the full effect not named in the record | potentiation, % at 8.33 µM | hit rate 0.02% among 320,000 | AID 540277; active means potentiation above 80%; inconclusive means 30% to 80%; inactive means below 30%; note: 0% is about no effect
Target sequence (Q8NER1 whole entry, looked up): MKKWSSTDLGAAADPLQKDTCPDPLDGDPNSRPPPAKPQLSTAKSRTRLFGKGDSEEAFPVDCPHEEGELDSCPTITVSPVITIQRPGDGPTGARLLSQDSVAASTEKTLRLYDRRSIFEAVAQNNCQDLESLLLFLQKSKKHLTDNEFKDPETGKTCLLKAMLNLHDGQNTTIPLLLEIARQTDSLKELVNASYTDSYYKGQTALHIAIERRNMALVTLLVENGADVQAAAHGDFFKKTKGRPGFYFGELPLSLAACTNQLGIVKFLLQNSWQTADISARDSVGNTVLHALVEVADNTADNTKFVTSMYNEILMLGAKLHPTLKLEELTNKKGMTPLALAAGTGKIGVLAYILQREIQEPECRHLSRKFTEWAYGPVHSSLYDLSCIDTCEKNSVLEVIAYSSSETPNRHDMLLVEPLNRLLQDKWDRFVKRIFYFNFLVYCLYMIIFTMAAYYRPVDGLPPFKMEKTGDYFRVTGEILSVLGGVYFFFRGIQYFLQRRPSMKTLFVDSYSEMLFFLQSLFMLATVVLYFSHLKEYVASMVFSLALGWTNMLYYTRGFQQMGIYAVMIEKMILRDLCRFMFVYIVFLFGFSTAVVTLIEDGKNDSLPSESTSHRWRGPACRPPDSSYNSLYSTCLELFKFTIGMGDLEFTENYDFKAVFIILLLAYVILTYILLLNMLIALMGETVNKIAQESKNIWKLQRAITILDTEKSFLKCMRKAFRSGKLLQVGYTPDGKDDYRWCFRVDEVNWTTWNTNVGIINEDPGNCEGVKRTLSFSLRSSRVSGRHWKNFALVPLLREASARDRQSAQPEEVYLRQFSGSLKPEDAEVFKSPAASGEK
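TRPV1-expressing cells were cultured overnight at 35.5C and loaded with Fluo-8 calcium dye for 40 to 90 min at room temperature. After a 10 s baseline, compound was added and calcium influx was read kinetically for 3 min (ex 480/em 520 nm).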
ClpP mod = qHTS Assay for Activators of ClpP. purified B. subtilis ClpP, FRET peptide cleavage, 20 min. hit rate 1.9% among 340,000. Potency, µM (doses to about 57.5 µM), without a hit: top-dose activity change, negative = active. ATP-dependent Clp protease proteolytic subunit (Bacillus subtilis (strain 168)), P80244; active = well fitted falling curve with a large enough effect; inconclusive = small, poorly fitted or top-dose-only effect; inactive = no such curve, though single readings can be large or run the other way; note: potency is the fitted concentration of half-maximal effect; the source files actives as falling curves though it sought activators and does not explain the sign; nearly all actives have a fitted effect of over 65% in size; many hits overshoot -100%
Target sequence (P80244 whole entry, looked up): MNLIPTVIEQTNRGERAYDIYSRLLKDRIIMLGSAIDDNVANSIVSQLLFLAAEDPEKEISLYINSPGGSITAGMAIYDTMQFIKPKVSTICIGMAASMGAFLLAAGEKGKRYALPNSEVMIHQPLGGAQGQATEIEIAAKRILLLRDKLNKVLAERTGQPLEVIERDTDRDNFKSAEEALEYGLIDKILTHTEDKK
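Purified B. subtilis ClpP, 10 microg/mL final in Tris/HCl pH8 with KCl, BSA, glycerol and Tween-20, cleaved an Abz/nitrotyrosine-quenched decapeptide. Fluorescence (ex 320, em 430) was read at 0 and 20 min at room temperature. Delta was normalized to 5.8 microM ADEP and DMSO/no-enzyme controls.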
CtBP-E1A blk = inhibitors of CtBP/E1A interaction. AlphaScreen GST-E1A/His-CtBP binding, 1536-well; active compounds read low; control for the full effect not named in the record. activity change, % (concentration not given with the values). hit rate 0.49% among 340,000; in the data active means activity change below about -65%; inconclusive means about -30% to -65%; inactive means above about -30%; note: % is set by controls: 0 for no effect and ±100 for the full control effect
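Steps: dispense buffer (Tris pH 8.0, NaCl 300 mM, TCEP 1 mM, BSA, Tween 20); add 5X protein mix (GST-E1A, His-CtBP, 125 nM each); pin 23 nL compound; 2 h at 37 °C, dark; add 5X beads (50 ug/mL); 1 h; read.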
gsp antagonist = gsp mutant antagonism | Potency, µM (top dose mostly 76.9 µM), for inactives: top-dose activity change, negative = inhibition, usual class: inhibitors | gsp-mutant cells, cAMP HTRF, 30 min; control for the full effect not named in the record | hit rate 0.4% among 340,000; active = falling curve of any shape with a large fitted effect; inconclusive = falling curve, mostly with a smaller effect; inactive = flat or rising curve; cell line not stated here;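 note: intracellular cAMP measured with PDE inhibitor Ro 20-1724 present during compound exposure; potency is the fitted concentration of half-maximal effect; % is set by controls: 0 for no effect and ±100 for the full control effect; nearly all actives have a fitted effect of over 65% in size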
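G418-selected cells were plated in DMEM/10% FBS for 16-24 h at 37C, then treated with compounds plus the PDE inhibitor […] (300 uM solution added) for 30 min at 37C. Intracellular cAMP was measured by HTRF after 30 min lysis at room temperature.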
An asterisk follows results filed as active; ? = inconclusive; nt = not tested or not shown; [ ] = dose if it differs, or a comment.

SMILES	Sfp PPTase inh	Menin MLL FP FL	gsp ag	TRPV1 potentiator	ClpP mod	CtBP-E1A blk	gsp antagonist
CCn1c(SCC(=O)N/N=C/c2ccccc2OCC(=O)O)nnc1-c1ccc(C(C)(C)C)cc1	2%	0.2	11%[15.4 µM]	-13	nt	-1	-7%
Cc1ccc(-n2[nH]c(C)c(/C=N/n3c(C)nc4ccccc4c3=O)c2=O)cc1	-2%	0.5	1%	-3	-2.6%	-17	-6%
CCCn1c(N)c(Br)c(=O)[nH]c1=O	17%	4.2	12%[15.4 µM]	-1	-1.8%	-4	9%
Cc1onc(-c2c(F)cccc2Cl)c1C(=O)N1C=CC(C(F)(F)Cl)=NCC1	23%	4.1	1%	18	-0.8%	-1	-2%
CC1CN(C2CCN(S(=O)(=O)c3ccc4ccccc4c3)CC2)CC(C)O1 (stereo not given)	32µM*	0.5	15%	2	-2.7%	-1	-10%
COc1ccc(C2(CNC(=O)c3ccccc3)CCCC2)cc1OC	33%[activator]	-6.4	-8%[15.4 µM]	-17	0.6%	14	-21%
CN(C)S(=O)(=O)c1cccc(NC(=O)c2ccncc2)c1	8%	4.4	36%	-4	-4.4%	-8	5%
COc1cccc(C2C3=C(N=C4SCC(=O)N42)c2ccccc2CC3)c1OC (stereo not given)	-3%	0.0	6%	15	-4.9%	-4	-13%
CCOC(=O)[C@@H]1[C@H]2COc3cc(OC)ccc3[C@@H]2N2C(=O)N(c3ccc(OC)cc3)C(=O)[C@@]12C	nt	nt	-34%	nt	0.2%	3	-3%
O=S(=O)(Nc1ccccc1Br)c1cccc2cccnc12	nt	nt	-52%[inhibitor]	nt	1.1%	1	nt
CC(=O)NC1(c2nnnn2CCOC(=O)Nc2ccc(Cl)cc2)CCCCC1	-1%	-0.4	17%	-21	-1.9%	-2	6%
CC(=O)Nc1ccccc1C(=O)C(=O)Nc1ccc(C)c(C)c1	9%	1.8	12%[15.4 µM]	-3	nt	-5	9%
COc1ccc(N2C(=O)C3CCCN3C2c2ccccc2OC)cc1 (stereo not given)	-29%	1.7	17%	-8	0.6%	6	11%
COc1cccc(OC)c1C(=O)N[C@@H]1C(=O)N2[C@@H]1SC(C)(C)[C@@H]2C(=O)O	nt	nt	0%[15.4 µM]	nt	nt	2	12%
CCC(=O)N1N=C(c2ccc(C)cc2)CC1c1ccco1 (stereo not given)	-4%	-1.6	-58%[inhibitor]	-8	-3.1%	-1	-6%
COc1ccc(OC)c(NC(=O)CC2SC(=NCc3ccccc3)NC2=O)c1 (stereo not given)	6%	-2.8	-79%[inhibitor]	-12	0.3%	-4	7%
O=[N+]([O-])c1ccc(N=Nc2ncc[nH]2)cc1	-25%	?	?	2	-1.1%	nt	4%
Cc1cc(NCCCn2ccnc2)n2c(nc3ccccc32)c1C#N	19%	8.4	11%	-8	14%	-8	?
CCN(C(=O)COC(=O)c1ccc(S(=O)(=O)N2CCCc3ccccc32)cc1)C1CCS(=O)(=O)C1 (stereo not given)	-1%	2.5	-1%	14	nt	7	-5%
O=C(N/N=C/c1ccc(-c2ccc([N+](=O)[O-])cc2)o1)[C@H]1C[C@@H]1c1ccccc1	-13%	?	24%	-1	nt	6	-8%
CC(C)(C)c1cc(NC(=O)Nc2ccc(Cl)cc2Cl)no1	20%	2.4	-4%[15.4 µM]	1	nt	4	5%
COc1ccc(-n2c(=S)[nH]c3cc(C(=O)NCc4ccc(F)cc4)ccc3c2=O)c(OC)c1	25%	-3.9	7%[15.4 µM]	10	1.1%	0	25µM*
CN(CCc1ccccc1)c1ccc([N+](=O)[O-])cn1	3%	-0.7	0%	3	0.6%	-1	-5%
CCCCCCC(=O)O	nt	nt	nt	nt	-1.0%	9	-1%
Cc1ccccc1CCN(C(=O)Cn1nnc2ccccc21)C(C(=O)NC(C)(C)C)c1ccsc1 (stereo not given)	14%	3.8	11%	-25	-1.8%	-7	-1%
O=C(Nc1ccc2c(c1)CCCN2C(=O)c1ccccc1)c1ccccc1	0%	3.9	-5%	5	-2.4%	-16	-25%
C=CCC[C@@H](Cc1ccc(F)cc1)C(=O)OC[C@H](Cc1c[nH]c2ccccc12)NC(=O)[C@@H](CC=C)CC(=O)N[C@H](CO)Cc1ccccc1	nt	nt	nt	nt	-0.4%	-7	-6%
O=C(Nc1ccc(Br)cc1)c1ccc(-n2cnnn2)cc1	11%	-2.2	-2%	0	nt	2	7%
COC(=O)c1ccc(C(=O)OC)c(NC(=O)CSc2ccccn2)c1	2%	-1.8	-48%[inhibitor]	-19	-3.0%	8	-10%
Nc1ncnc(Nc2ccccc2Oc2ccccc2)n1	nt	nt	-5%	nt	-5.7%	8	-10%
O=C(CNC(=O)c1ccncc1)N/N=C/c1ccccc1[N+](=O)[O-]	12%	3.6	?	7	-3.0%	2	-1%
O=S(=O)(Nc1ccc2c(c1)OCCO2)c1cccc(F)c1	14%	-2.0	7%	14	0.2%	6	5%
COc1ccc(S(=O)(=O)N2CCOCC2)cc1NC(=O)CN1CCC(Cc2ccccc2)CC1	4%	3.2	25%	8	1.4%	9	-12%
CSCCC(NS(=O)(=O)c1ccc2ccccc2c1)C(=O)OCC(=O)c1ccc(C(C)C)cc1 (stereo not given)	-10%	6.0	-11%	-1	-6.2%	-23	-6%
CCSc1nnc(NC(=O)COc2ccc3ccccc3c2)s1	-2%	3.2	-24%	22	-1.8%	0	8%
C=CCN(C(=O)CNC(=O)c1cccs1)C(C(=O)NC1CCCCC1)c1cccnc1 (stereo not given)	14%	-3.7	-27%	16	nt	6	-2%
COc1ccccc1[C@@H]1C(c2ccccc2)=NN(c2ccc(Br)cc2)[C@H]1C(=O)N1CCOC1=O	5%	-0.7	nt	nt	4.2%	27	-2%
COc1ccc2ccccc2c1CN1CCN(C)CC1	1%	-0.5	4%	-5	-3.5%	2	8%
Cc1ccc(S(=O)(=O)N2CCC(C(=O)OC(C)C(=O)NCc3ccc4c(c3)OCO4)CC2)cc1 (stereo not given)	15%	1.2	2%	8	1.4%	1	-11%
CCCCc1cc(=O)oc2c3c(cc(OCC(=O)NCCCO)c12)OC(C)(C)CC3	15%	9.8	2%	6	3.3%	-2	-15%
Cn1c2c(c(=O)n(C)c1=O)C1c3cc(Cl)ccc3OCC1CO2 (stereo not given)	-2%	2.8	-34%[inhibitor]	-4	-0.8%	-4	6%
COc1ccc(-n2c(-c3ccccc3)nnc2-c2ccc(Cl)cc2)cc1	-2%	2.1	1%	-4	-25%	-2	6%
COc1ccc(CCN2CC(C(=O)Nc3ccccc3F)CC2=O)cc1OC (stereo not given)	nt	nt	8%[15.4 µM]	-2	nt	4	6%
Cn1c(-c2ccc(Cl)cc2)cnc1N	5%	2.4	?	-2	-1.6%	-2	3%
CC(=O)[C@@H]1[C@@H](C)N(Cc2ccccc2)C(=O)N[C@H]1c1ccccc1	7%	1.2[11.7 µM]	8%	nt	0.0%	7	7%
COc1ccc(-n2c(SCC(=O)Nc3ccccc3OC)nc(O)cc2=O)cc1	-9%	5.0	6%[15.4 µM]	6	35µM*	-14	-8%
O=C(CSc1nnc2c(Cl)cc(Cl)cn12)N1CCN(S(=O)(=O)c2ccccc2)CC1	4%	-2.9	41%	3	-0.9%	13	-3%
O=c1onc(-c2ccccc2)n1-c1cc(Cl)cc(Cl)c1	nt	nt	20%	nt	nt	0	1%
Cc1ccc(C(=O)Nc2oc(-c3ccccc3)cc2C#N)cc1	-11%	13	?	-33	-27%	0	-11%
COc1cc2nc(N3CCNCC3)nc(N)c2cc1OC	-5%	5.5	44%	2	26%	-12	-1%
CCC(=O)c1cn(CC(=O)O)c2ccccc12	-3%	1.2	10%[15.4 µM]	3	nt	-12	13%
CCOC(=O)c1c(-c2cccs2)csc1NC(=O)CC(C)C	-12%	3.6	7%	-12	-13%	39	-10%
Cc1cc(NC(=O)CSC2=NS(=O)(=O)c3cc(Cl)ccc3N2)no1	nt	nt	3%	5	0.7%	6	-11%
Cc1cccn2cc(CCNC(=O)c3cccs3)nc12	-19%	9.4	0%[15.4 µM]	16	nt	-3	6%
O=C(NC(=S)N1CCN(C/C=C/c2ccccc2)CC1)c1cccnc1	-8%	1.7	0%[15.4 µM]	4	-0.7%	-23	-5%
O=c1n(S(=O)(=O)c2cccc3cccnc23)c2ccccc2n1S(=O)(=O)c1cccc2cccnc12	8%	-1.5	1%	-6	0.9%	-1	-10%
COc1ccc(C2NCCc3cc(OC)c(OC)cc32)cc1OC (stereo not given)	-14%	0.9	-21%	-2	0.6%	2	0%
O=C(CN(C(=O)c1ccccc1)N1C(=O)CCC1=O)c1cccs1	9%	4.1	-78%[inhibitor]	6	4.7%	8	4%
COc1cc(SC)ccc1C(=O)OC(C)C(=O)NC1CCCC1 (stereo not given)	-5%	6.1	17%[15.4 µM]	5	nt	1	3%
CCOC(=O)c1cccc(NC(=O)CN2CCN(c3ccc(OC)cc3)CC2)c1	-3%	4.3	?	-12	-2.0%	0	-7%

Next part:
SMILES	Sfp PPTase inh	Menin MLL FP FL	gsp ag	TRPV1 potentiator	ClpP mod	CtBP-E1A blk	gsp antagonist
COc1ccccc1Cc1noc(-c2cc(Cl)ccc2OC)n1	-5%	2.5	-2%	3	-14%	1	-7%
COc1ccc(S(=O)(=O)N2CCCCC2)cc1NC(=O)CCNC(=O)c1ccco1	nt	nt	18%	-12	-1.0%	0	-5%
CCOCc1c(C(=O)OCC(=O)Nc2ccc(C)c(S(=O)(=O)N(C)C)c2)oc2ccccc12	28%	-1.1	-19%	26	-7.7%	-9	-21%
Cc1ccc(NC2CC(=O)N(c3ccc(C)cc3)C2=O)cc1 (stereo not given)	2%	1.0	-3%	2	0.6%	-3	6%
CCOCCCNS(=O)(=O)c1ccc2c(c1)OCCO2	17%	1.3	-16%	7	1.1%	0	-16%
Cc1cccn2c(=O)nc(SCC(=O)N3CCCCC3)nc12	nt	nt	-5%[15.4 µM]	10	nt	2	3%
O=C1CN(S(=O)(=O)c2ccc(F)cc2)CC(=O)N1CCc1ccccc1	-4%	-1.1	nt	-3	nt	nt	nt
CCN1C(=O)/C(=C\c2ccncc2)SC1=S	-5%	-2.7	-20%	-19	0.0%	nt	-2%
